HNF4A DNA FP: change in binding of human HNF4A to DNA, primary screen, biochemical, fluorescence polarization, FITC-DNA | Hepatocyte nuclear factor 4-alpha (Homo sapiens), P41235 | 1 h | 360,000 tested, 0.3% active | activity change, % at 10 µM; in the data active = activity change above about 30%, passing the limit was not always enough;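 also: controls were the assay level and a saturating level of protein; the project sought stronger binding though the title names inhibitors; some compounds called inactive have numbers as strong as hits; positive values seem to mean higher polarization but the record does not say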
Target sequence (P41235 whole entry, looked up): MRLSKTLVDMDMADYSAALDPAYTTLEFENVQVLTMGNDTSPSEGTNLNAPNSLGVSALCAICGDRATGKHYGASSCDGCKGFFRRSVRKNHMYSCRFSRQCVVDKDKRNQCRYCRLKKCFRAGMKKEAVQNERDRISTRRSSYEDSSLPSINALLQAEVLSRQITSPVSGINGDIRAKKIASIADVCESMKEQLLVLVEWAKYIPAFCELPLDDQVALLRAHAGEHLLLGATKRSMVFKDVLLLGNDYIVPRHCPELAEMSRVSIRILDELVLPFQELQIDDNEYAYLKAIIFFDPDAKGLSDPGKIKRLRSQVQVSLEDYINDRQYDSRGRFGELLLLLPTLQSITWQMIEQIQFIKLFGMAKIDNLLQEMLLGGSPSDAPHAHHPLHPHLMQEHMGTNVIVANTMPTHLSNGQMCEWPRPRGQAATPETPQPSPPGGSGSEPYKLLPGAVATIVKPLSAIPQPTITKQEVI
ALR H2O2 inh: inhibitors of human ALR sulfhydryl oxidase, primary screen, biochemical, H2O2 detection, HRP-luminol luminescence, single point. purified ALR, DTT oxidation. inhibition, % (concentration not given with the values). 290,000 tested, 3.8% active. FAD-linked sulfhydryl oxidase ALR (Homo sapiens), P55789. AID 485317, 2010;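 active = mean and each replicate at 75% or more; inconclusive = only one of the two met; inactive = neither met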;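 also: stock transfer was 7.5 nL into about 7.5 µL; 0% = neutral wells and 100% = wells with inactivated enzyme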
AF4-AF9 inh: inhibitors of AF4 peptide binding to AF9, primary screen, biochemical, AlphaScreen, biotin-AF4 peptide, FLAG-AF9, single point | AID 651704, 2012 | Protein AF-9 (Homo sapiens), P42568 | inhibition, % at 10 µM | 350,000 tested, 0.47% active;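 active = every replicate reaching a set inhibition limit, whatever the replicate mean, cut at about 25% in these data; inconclusive = mean inhibition reaches that limit but some replicates miss it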;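 also: 0% = plate neutral control median and 100% = total signal loss; the record names both 10 and 1 µM as test concentration; the first replicate is given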
Target sequence (P42568 whole entry, looked up): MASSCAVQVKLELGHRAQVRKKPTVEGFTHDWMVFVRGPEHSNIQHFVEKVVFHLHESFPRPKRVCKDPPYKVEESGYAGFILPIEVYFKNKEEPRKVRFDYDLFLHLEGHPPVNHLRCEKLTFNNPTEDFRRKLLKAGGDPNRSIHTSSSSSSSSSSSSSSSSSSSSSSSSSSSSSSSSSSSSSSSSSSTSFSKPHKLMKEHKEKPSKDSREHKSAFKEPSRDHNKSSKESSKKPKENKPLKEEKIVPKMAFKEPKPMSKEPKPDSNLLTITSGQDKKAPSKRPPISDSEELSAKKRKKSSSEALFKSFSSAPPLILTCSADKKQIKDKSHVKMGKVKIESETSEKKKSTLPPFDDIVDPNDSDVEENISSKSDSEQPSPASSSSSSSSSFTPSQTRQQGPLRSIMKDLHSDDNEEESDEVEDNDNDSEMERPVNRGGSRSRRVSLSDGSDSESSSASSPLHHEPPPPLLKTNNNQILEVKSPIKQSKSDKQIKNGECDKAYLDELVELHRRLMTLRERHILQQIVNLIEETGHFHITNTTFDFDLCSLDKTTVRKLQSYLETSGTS
FGF22 binding: binders of human FGF22 protein, primary screen, FGF22 synaptogenesis inhibitor project, biophysical, thermal shift, single point; 340,000 tested, 1.5% active; calls only at 9.99 µM; recombinant FGF22 thermal shift, SYPRO orange fluorescence; percent of sucrose octasulfate shift, DMSO zero;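 active = melting point raised past a set limit in the mean and every replicate; inconclusive = no clear call; three in four hits are not shown here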
E coli growth: E. coli growth inhibition, primary screen, OD600. Escherichia coli growth, 23 h; stronger effect = lower value. OD600 absorbance (concentration not given with the values). 330,000 tested, 0.21% active;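 active = OD600 absorbance below the run mean of sample wells minus 3.6 SD, in any replicate, cut at about 0.56 in these data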;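 also: stock transfer was 300 nL into about 60 µL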
Vif A3G: inhibitors of Vif binding to APOBEC3G peptide, primary screen, biochemical, TR-FRET, GST-Vif 1-94, biotin-A3G peptide, dose response retest (AID 1117319) | TR-FRET GST-Vif / biotin-A3G peptide binding; higher % means a stronger effect; test concentration not given here; strong numbers were not always called active | one-dose inhibition, %; IC50 in µM for titrated hits | 260,000 tested, 0.57% active;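 active = above the screen mean plus three standard deviations and confirmed in dose response; inconclusive = results disagree or hit not tested in dose response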;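 also: Vif residues 1-94 fused to GST binding biotinylated APOBEC3G peptide 110-148; 0% = full assay without inhibitor and 100% = GST in place of GST-Vif; retest series ran down from 100 µM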
Ecoli rRNA inh: reduced GFP signal of wild-type E. coli, primary screen, bacterial rRNA inhibitor project, GFP/RFP fluorescence, OD600, single point; E. coli WT GFP vs humanized-ribosome RFP mutants, 24 h; stronger effect = lower value; DMSO median 0, no signal -100; 350,000 tested, 1.6% active; GFP signal change (wild-type ribosome), % (concentration not given with the values);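 active = significant combined selectivity score with lowered wild-type GFP, culture density cut under 30%, mutant RFP and density less affected; inactive = any of these conditions unmet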; also: one replicate is shown; some compounds called inactive have numbers as strong as hits
Ecoli rRNA inh OD600: further read-out of Ecoli rRNA inh, marked with its call; OD600 change, %; measured here: OD600 growth;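 optical density of the mix in the first replicate; 0 = DMSO median and -100 = no signal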
Ecoli rRNA inh RFP: second read-out of Ecoli rRNA inh, no call of its own (marks repeat the call); RFP signal change, %; measured here: RFP humanized mutant strains;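 first replicate; 0 = DMSO median and -100 = no signal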
* marks the source's active call; other numbers are inactive results; i = inactive; u = inconclusive; x = no result given; & = joins results of further samples. The list is partial. The share of hits here may be higher or lower than overall.

SMILES	HNF4A DNA FP	ALR H2O2 inh	AF4-AF9 inh	FGF22 binding	E coli growth	Vif A3G	Ecoli rRNA inh	Ecoli rRNA inh OD600	Ecoli rRNA inh RFP
COC(=O)[C@H](Cc1ccccc1)NC(=O)[C@@H]1C[C@H]1[C@@H](NC(=O)OCc1ccccc1)c1ccccc1	0.0	-2	x	i	x	22%	6	4	-0.7
C[C@H](CO)N1C[C@H](C)[C@@H](CN(C)S(=O)(=O)c2ccccc2)Oc2ncc(-c3cccc(C(=O)N(C)C)c3)cc2C1=O	x	x	-0.9	i	x	x	-16	-3	-2.5
CC(=O)Nc1ccc2c(c1)C(=O)N(C)[C@H]1CC[C@H](CC(=O)Nc3cn(C)nc3C)O[C@H]1CO2	x	x	0.3	i	x	x	-3	-1	-2.0
CS(=O)(=O)N1CCc2cc(S(=O)(=O)NCCNS(=O)(=O)c3ccc4c(c3)CCN4S(C)(=O)=O)ccc21	3.2	1	-0.1	i	0.67	7%	19	6	3.8
OC[C@H]1[C@H](c2ccc(-c3ccccc3F)cc2)[C@H]2CN(Cc3ccncc3)CCCCN21	x	x	-4.7	i	x	x	4	2	12
C[C@@H]1CN([C@@H](C)CO)C(=O)c2cc(NC(=O)c3ccccc3)ccc2O[C@@H](C)CCCCO[C@@H]1CN(C)S(=O)(=O)c1ccccc1	x	x	-1.3	i	x	x	0	0	1.6
C[C@@H]1CN([C@H](C)CO)C(=O)c2cccc(NS(=O)(=O)c3ccc(F)cc3)c2O[C@@H]1CN(C)C(=O)Nc1ccc(F)cc1	x	x	0.7	i	x	x	-3	3	-0.9
CCOc1ccc(C(=S)N2CCOCC2)cc1	-1.6	7	x	x	0.64	18%	x	x	x
O=C(C[C@H]1CC[C@@H](NC(=O)C2CC2)[C@H](CO)O1)NCc1ccncc1	x	x	-1.4	i	x	x	1	2	-0.2
CC(O)(c1cccc(F)c1)c1nc(-c2ccncc2)cs1 (centres undefined)	1.2	x	0.0	i	x	x	-12	-23	-8.8
O=C(Nc1ccccn1)c1cc2cc([N+](=O)[O-])ccc2s1	3.3	x	-2.9	i	0.67	-8%	10	18	0.6
O=C(CSc1nnc2ccccn12)NNC(=O)c1ccc(Cl)cc1	-2.2	2	-1.4	i	x	x	17	6	-7.6
CCOC(=O)C1CCN(C(=O)C(CC)c2ccccc2)CC1 (centres undefined)	-1.3	-16	-2.5	i	0.68	-5%	-3	-2	-0.1
O=c1cc(O)c2c(=O)[nH]c(=O)n(-c3ccccc3)c2[nH]1	-4.0	6	x	x	0.68	2%	x	x	x
COc1ccc(NC(=O)Nc2ccc(F)cc2)cn1	0.2	-12	-0.6	i	0.61	-1%	8	14	-1.8
Cc1ccc2c(c1)CCCN2C(=O)c1cc(C)on1	-5.9	-3	-0.7	i	0.7	x	6	7	-0.1
O=C(NCc1cccnc1)c1ccc(NC(=O)c2cccc([N+](=O)[O-])c2)cc1	2.4	x	2.8	i	0.71	-10%	3	5	-1.4
Cc1ccc(NC(=O)c2ccccc2)s1	-3.6	95*	x	x	0.71	-5%	x	x	x
COC(=O)NCC(c1cccnc1)N1CCN(c2ccccc2F)CC1 (centres undefined)	-1.9	-1	-5.9	i	0.79	32%	6	11	-1.5
CCCn1c(NC(=O)c2ccccc2)nc2ccccc21	-1.3	-2	x	x	0.7	-5%	x	x	x
COC(=O)C(CC(C)C)NC(=O)c1ccc([N+](=O)[O-])cc1 (centres undefined)	-0.2	-15	x	x	0.73	-3%	x	x	x
O=C1CS/C(=C/C(=O)c2ccccc2)N1	5.5	12	x	x	0.65	1%	x	x	x
N#C/C(=C\c1ccccc1[N+](=O)[O-])C(=O)NCc1ccccc1	2.5	30	2.9	i	0.66	17%	-7	-3	2.1
CCOc1ccc(C(=O)N2CCN(Cc3ccccc3)CC2)cc1OCC	1.1	x	1.8	i	0.66	6%	18	3	4.7
O=C(COc1ccccc1)N1CCN=C1SCc1ccc(F)cc1	5.9	98*	-5.3	i	0.68	u	-1	-10	-2.2
CO[C@H]1CN(C)C(=O)c2ccc(NC(=O)Nc3cccc(F)c3)cc2OC[C@H](C)N(C(=O)Nc2c(C)noc2C)C[C@@H]1C	x	x	-0.1	i	x	x	3	-4	2.8
O=C(Nc1cc(F)ccc1F)N[C@@H]1CC[C@@H](CCn2cc(C3CCCCC3)nn2)O[C@H]1CO	x	x	0.6	i	x	x	5	8	-2.1
CC(C)NC(=O)N(C)C[C@H]1Oc2ccc(NC(=O)c3ccncc3)cc2CC(=O)N([C@H](C)CO)C[C@@H]1C	x	x	10	i	x	x	3	-4	-0.4
O=C(O)c1c(C(=O)O)c(-c2ccc(F)cc2)n2c1CCC2	2.3	x	-2.1	i	x	x	10	6	-1.5
N#C[C@@H]1[C@H](c2ccc(-c3cncnc3)cc2)[C@H](CO)N1C(=O)Cc1ccccc1	x	x	-0.3	i	x	x	2	7	-1.8
CC1(C)CC(=O)C=C(Nc2ccccn2)C1	0.1	-1	x	x	0.67	-10%	x	x	x
COc1ccc(N2CCN(C(CNC(=O)C(=O)NCc3ccc4c(c3)OCO4)c3ccco3)CC2)cc1 (centres undefined)	-4.2	-8	-13	i	0.73	3%	15	2	-4.8
O=S(=O)(c1ccc(-n2cnnn2)cc1)N1CCC(N2CCCCC2)CC1	2.8	-16	-2.5	i	0.65	-12%	26	10	3.0
CS(=O)(=O)Cc1ccc(C(=O)NNC(=O)c2cc(-c3ccccc3)n[nH]2)cc1	-1.7	3	0.2	i	0.65	-7%	0	5	-1.3
C[C@H](CO)N1C[C@H](C)[C@H](CN(C)Cc2ccc(C(=O)O)cc2)OCCCC[C@H](C)Oc2ccc(NC(=O)C3CCCCC3)cc2C1=O	x	x	-2.7	i	x	x	4	4	-0.6
Cc1occc1C(=O)NNC(=O)C1CC1	-2.2	-2	-1.3	i	0.71	5%	8	17	1.3
O=C(Cc1cccc([N+](=O)[O-])c1)Nc1cccc(C(=O)N2CCCCC2)c1	-15	2	3.6	i	0.67	x	-18	-33	-14
Cc1noc(C)c1S(=O)(=O)Nc1ccc2c(c1)C(=O)N([C@H](C)CO)C[C@@H](C)[C@H](CN(C)C(=O)Nc1ccc(C(F)(F)F)cc1)O2	x	x	-2.8	i	x	x	-2	-8	1.2
COc1ccc(CNC(=O)Nc2cccc3ccccc23)cc1	-0.6	-7	x	x	0.78	-8%	x	x	x
COc1cccc(S(=O)(=O)Nc2ccc(C(=O)N3CCN(C(=O)c4ccco4)CC3)cc2)c1	-3.8	-1	x	x	0.74	-2%&7%	x	x	x

A draw from above in order of SMILES length, rising:
SMILES	HNF4A DNA FP	ALR H2O2 inh	AF4-AF9 inh	FGF22 binding	E coli growth	Vif A3G	Ecoli rRNA inh	Ecoli rRNA inh OD600	Ecoli rRNA inh RFP
Cc1occc1C(=O)NNC(=O)C1CC1	-2.2	-2	-1.3	i	0.71	5%	8	17	1.3
CC1(C)CC(=O)C=C(Nc2ccccn2)C1	0.1	-1	x	x	0.67	-10%	x	x	x
COc1ccc(CNC(=O)Nc2cccc3ccccc23)cc1	-0.6	-7	x	x	0.78	-8%	x	x	x
O=C(COc1ccccc1)N1CCN=C1SCc1ccc(F)cc1	5.9	98*	-5.3	i	0.68	u	-1	-10	-2.2
CCOc1ccc(C(=O)N2CCN(Cc3ccccc3)CC2)cc1OCC	1.1	x	1.8	i	0.66	6%	18	3	4.7
COC(=O)C(CC(C)C)NC(=O)c1ccc([N+](=O)[O-])cc1 (centres undefined)	-0.2	-15	x	x	0.73	-3%	x	x	x
O=S(=O)(c1ccc(-n2cnnn2)cc1)N1CCC(N2CCCCC2)CC1	2.8	-16	-2.5	i	0.65	-12%	26	10	3.0
O=C(Cc1cccc([N+](=O)[O-])c1)Nc1cccc(C(=O)N2CCCCC2)c1	-15	2	3.6	i	0.67	x	-18	-33	-14
CS(=O)(=O)Cc1ccc(C(=O)NNC(=O)c2cc(-c3ccccc3)n[nH]2)cc1	-1.7	3	0.2	i	0.65	-7%	0	5	-1.3
COc1cccc(S(=O)(=O)Nc2ccc(C(=O)N3CCN(C(=O)c4ccco4)CC3)cc2)c1	-3.8	-1	x	x	0.74	-2%&7%	x	x	x
O=C(Nc1cc(F)ccc1F)N[C@@H]1CC[C@@H](CCn2cc(C3CCCCC3)nn2)O[C@H]1CO	x	x	0.6	i	x	x	5	8	-2.1
CC(C)NC(=O)N(C)C[C@H]1Oc2ccc(NC(=O)c3ccncc3)cc2CC(=O)N([C@H](C)CO)C[C@@H]1C	x	x	10	i	x	x	3	-4	-0.4
CO[C@H]1CN(C)C(=O)c2ccc(NC(=O)Nc3cccc(F)c3)cc2OC[C@H](C)N(C(=O)Nc2c(C)noc2C)C[C@@H]1C	x	x	-0.1	i	x	x	3	-4	2.8
C[C@H](CO)N1C[C@H](C)[C@H](CN(C)Cc2ccc(C(=O)O)cc2)OCCCC[C@H](C)Oc2ccc(NC(=O)C3CCCCC3)cc2C1=O	x	x	-2.7	i	x	x	4	4	-0.6
Cc1noc(C)c1S(=O)(=O)Nc1ccc2c(c1)C(=O)N([C@H](C)CO)C[C@@H](C)[C@H](CN(C)C(=O)Nc1ccc(C(F)(F)F)cc1)O2	x	x	-2.8	i	x	x	-2	-8	1.2

Carrying on:
SMILES	HNF4A DNA FP	ALR H2O2 inh	AF4-AF9 inh	FGF22 binding	E coli growth	Vif A3G	Ecoli rRNA inh	Ecoli rRNA inh OD600	Ecoli rRNA inh RFP
C[C@@H]1CN([C@H](C)CO)C(=O)c2cccc(N(C)C)c2O[C@@H]1CN(C)S(=O)(=O)c1cn(C)cn1	x	x	-1.8	i	x	x	4	1	-2.2
O=C(Nc1ccccc1Cl)c1ccc2ccccc2c1	2.2	0	-3.2	i	0.63	x	1	6	-4.1
CCOC(=O)c1sc2nc(N3CCOCC3)c3c(c2c1N)CC(C(C)C)OC3 (centres undefined)	1.5	5	x	x	0.66	4%	x	x	x
C[C@H]1CN([C@@H](C)CO)C(=O)c2cc(-c3cccc(F)c3)cnc2O[C@@H]1CN(C)Cc1ccncc1	x	x	-1.1	i	x	x	-3	-2	-0.2
Cc1csc(=S)n1-c1ccccc1	1.1	-1	x	x	0.71	-4%	x	x	x
COc1cccc2c(=O)n(CC(=O)N3CCN(c4ccccc4)CC3)ccc12	-0.4	32	-9.8	i	0.79	-3%	0	6	1.7
Cc1cc(/C=N/NC(=O)Cn2c3ccccc3c(=O)c3ccccc32)c(C)n1-c1ccccc1	8.4	-6	-1.1	x	x	-1%	13	10	3.5
c1ccc(Nc2nc3ccccc3o2)cc1	26	-14	x	x	0.71	32%	x	x	x

Printed as active in ALR H2O2 inh, of those listed so far:
canonical_smiles	ALR H2O2 inh	AF4-AF9 inh	FGF22 binding	Vif A3G	Ecoli rRNA inh	Ecoli rRNA inh OD600	Ecoli rRNA inh RFP
Cc1ccc(NC(=O)c2ccccc2)s1	95*	x	x	-5%	x	x	x
O=C(COc1ccccc1)N1CCN=C1SCc1ccc(F)cc1	98*	-5.3	i	u	-1	-10	-2.2
